RecA splice inh: blocks M. tuberculosis RecA intein splicing; hit rate 0.75% among 290,000; P9WHJ3; inhibition, %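 (about 9 µM by stock and volumes)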; AID 2221; cell-free RecA intein splicing, fluorescence; in the data active = inhibition above about 30%; inconclusive = no clear call, values can overlap the other calls;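 note: 0% = vehicle wells and 100% = reference inhibitor control wells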
Target sequence (P9WHJ3 whole entry, looked up, canonical isoform): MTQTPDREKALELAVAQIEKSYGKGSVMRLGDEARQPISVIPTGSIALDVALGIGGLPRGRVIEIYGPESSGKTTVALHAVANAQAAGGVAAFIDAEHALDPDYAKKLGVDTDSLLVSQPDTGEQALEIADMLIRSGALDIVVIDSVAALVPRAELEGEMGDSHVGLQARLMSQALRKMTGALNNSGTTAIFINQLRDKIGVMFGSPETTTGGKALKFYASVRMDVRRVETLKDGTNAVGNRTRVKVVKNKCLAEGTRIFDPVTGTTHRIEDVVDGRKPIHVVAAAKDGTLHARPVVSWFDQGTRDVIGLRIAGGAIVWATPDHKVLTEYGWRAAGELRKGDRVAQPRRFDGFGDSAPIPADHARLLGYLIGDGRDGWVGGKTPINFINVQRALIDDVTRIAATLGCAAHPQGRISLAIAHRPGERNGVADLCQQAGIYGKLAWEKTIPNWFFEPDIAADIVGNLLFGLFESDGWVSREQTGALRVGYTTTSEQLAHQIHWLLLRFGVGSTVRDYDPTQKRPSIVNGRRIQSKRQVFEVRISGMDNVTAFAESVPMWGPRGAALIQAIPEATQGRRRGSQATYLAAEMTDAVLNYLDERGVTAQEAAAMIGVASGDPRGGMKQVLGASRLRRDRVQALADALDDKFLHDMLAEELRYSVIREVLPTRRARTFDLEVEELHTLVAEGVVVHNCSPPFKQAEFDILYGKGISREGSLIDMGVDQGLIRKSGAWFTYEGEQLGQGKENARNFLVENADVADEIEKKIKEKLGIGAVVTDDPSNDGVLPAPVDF
Mtb betalactam: beta-lactam sensitization of Mtb H37Rv. M. tuberculosis H37Rv growth with meropenem, percent inhibition; hits of this screen are not shown here. inhibition, % at 25 µM. hit rate 0.27% among 330,000. AID 434955;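 active = about 74% or more and at least 40 points above the plate without the antibiotic, then above 30% in a dose series; inconclusive = first-round hits that could not be retested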;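 note: growth measured after seven days incubation then overnight dye step; 0% = bacteria only wells and 100% = bacteria with antibiotic; twin plates without the antibiotic show which effects depend on it; some results filed as inactive read as strong as hits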
YopH inh: YopH (Yersinia) phosphatase inhibition | fluorescence Ex485/Em525 | inhibition, %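 (about 10 µM by stock and volumes)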 | hit rate 0.16% among 140,000 | AID 898;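 active = inhibition of 50% or more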;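 note: controls were vehicle for no effect and minimum signal wells for full effect; inactives centre near -20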
Mtb H37Rv: M. tuberculosis H37Rv growth inhibitors, H37Rv strain (AID 1626). M. tuberculosis H37Rv growth inhibition; higher % means a stronger effect. inhibition, % at 10 µM, or IC50 in µM where a hit was titrated. hit rate 0.95% among 220,000;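 active = confirmed in a dose series; inconclusive = inhibition above 80% but not taken into the dose series; inactive = below 80% or under 30% at every dose of the series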;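 note: bacteria incubated seven days before Alamar blue readout; 0% = bacteria only wells and 100% = bacteria with antibiotic wells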
Arbovirus inh: blocks arbovirus infection; arbovirus infection cell-based antiviral screen; inhibition, % at 10 µM; hit rate 0.37% among 200,000; AID 1251;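 active = inhibition from about 30%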;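 note: bluetongue infection of BSR cells; cell survival read as ATP light after 72 h; 0% = infected wells without compound and 100% = uninfected wells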
Arbovirus inh repeat: further read-out of Arbovirus inh, marked with its call; inhibition, %; measured here: 10K subset replicate screen; many hits read low in the repeat;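 first of two repeat runs on a subset; 0% = infected and 100% = uninfected wells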
* hit, by the source's call; u = inconclusive; x = no result given. Not all compounds are listed. The share of hits here may be higher or lower than overall.

Start of the listing, in advance, 6 compounds:
SMILES	RecA splice inh	Mtb betalactam	YopH inh	Mtb H37Rv	Arbovirus inh	others
CCc1cc2c(=O)c(-c3cnn(-c4ccccc4)c3)c(C)oc2cc1OCC(=O)Nc1ccc(F)c(F)c1	0.4	7	-23	-5%	-28
Cc1ccc(NC(=S)NCc2ccco2)c(C)c1	0.1	-6	x	-2%	x
O=C(Nc1cc(S(=O)(=O)N2CCCCC2)ccc1N1CCCCC1)C1CC1	5.8	-6	x	-18%	x
O=C1OC(/C=C/c2ccc(Cl)cc2)=NC/1=C/c1ccco1	0.5	97	-27	24%	2
Cc1cccc(NC(=O)C2CCN(S(=O)(=O)c3ccc4c(c3)OCCCO4)CC2)n1	-2.3	-9	x	x	x
CC(C)N(Cc1nc(-c2ccc(Cl)cc2)no1)Cc1nccn1C	1.2	-5	x	3%	0

The whole of this part (from the top)
SMILES	RecA splice inh	Mtb betalactam	YopH inh	Mtb H37Rv	Arbovirus inh	others
CCc1cc2c(=O)c(-c3cnn(-c4ccccc4)c3)c(C)oc2cc1OCC(=O)Nc1ccc(F)c(F)c1	0.4	7	-23	-5%	-28
Cc1ccc(NC(=S)NCc2ccco2)c(C)c1	0.1	-6	x	-2%	x
O=C(Nc1cc(S(=O)(=O)N2CCCCC2)ccc1N1CCCCC1)C1CC1	5.8	-6	x	-18%	x
O=C1OC(/C=C/c2ccc(Cl)cc2)=NC/1=C/c1ccco1	0.5	97	-27	24%	2
Cc1cccc(NC(=O)C2CCN(S(=O)(=O)c3ccc4c(c3)OCCCO4)CC2)n1	-2.3	-9	x	x	x
CC(C)N(Cc1nc(-c2ccc(Cl)cc2)no1)Cc1nccn1C	1.2	-5	x	3%	0
Cc1ccc(OCCNC(=O)CCNS(=O)(=O)c2ccc(C)cc2)cc1	-1.1	-3	x	x	x
CN1CCN(C(=O)CCc2nnc3ccc(N4CCC5(CC4)OCCO5)nn23)CC1	-6.2	0	x	x	x
COc1ccc(C2C(C(=O)Nc3cccnc3)=C(C)Nc3nc(-c4ccco4)nn32)cc1 (stereo not given)	-0.8	2	-48	-6%	3	Arbovirus inh repeat=-8
CCOC(=O)Nc1sc2nc(C)cc(C)c2c1-n1cccc1	-6.1	-8	-27	12%	19
Fc1ccccc1N1CCN(c2cnc3ccccc3n2)CC1	-0.6	3	-14	3%	1
O=C(Cc1ccc(Cl)cc1)Nc1ccc2oc(-c3ccncc3)nc2c1	-4.2	61	-2	-3%	-36
COc1ccc(OC)c(N2C(N)=NC(N)=NC23CCCC3)c1	x	-6	-25	-8%	7
CC(=O)N1CCN=C1SCc1ccc(C(F)(F)F)cc1	-1.3	45	x	x	x
CC1CCN(C(=O)c2ccc(CSc3nc4ccncc4n3Cc3ccc(F)cc3)cc2)CC1	-3.7	-6	-14	2%	1
Cc1ccc(C(=O)COC(=O)C(C)N2C(=O)C3C4CCC(C4)C3C2=O)cc1 (stereo not given)	1.7	u	x	x	x
COC(=O)c1cc2sccc2n1CC(=O)Nc1ccc(OC)c(OC)c1OC	0.5	1	-14	-10%	-6
COc1ccc(C(c2sc3ncnn3c2O)N2CCN(c3ccccc3F)CC2)cc1OC (stereo not given)	1.2	-8	-24	6%	-7	Arbovirus inh repeat=2
CC(=O)Oc1cccc(N2C(=O)C3CC=C(Cl)CC3C2=O)c1 (stereo not given)	5.3	-9	-25	-7%	2	Arbovirus inh repeat=2
CCOC(=O)CNC(=O)C1CCC(CNS(=O)(=O)c2cccc3nsnc23)CC1 (stereo not given)	2.1	4	x	x	x
CC(=O)N1c2ccc(S(=O)(=O)N3CCCCC3)cc2CC1C(=O)Nc1ccc(F)cc1C (stereo not given)	1.4	7	x	x	x
CC(=O)Nc1ccc(NC(=O)c2ccccc2CC[N+](=O)[O-])cc1	-1.1	-2	-23	-2%	8
CCc1nnc(NC(=O)CSc2sc3c(O)cc(=O)[nH]c3c2C#N)s1	-2.5	-12	x	x	x
N#CCC(=O)Nc1ccc(C(=O)NCCC(c2ccccc2)c2ccccc2)cc1	-4.6	0	x	x	x
CCN(CC)CCOc1ccc(Br)cc1	-1.6	-3	-23	-5%	-6	Arbovirus inh repeat=-3

Some of these compounds in order of molecular weight, highest first:
SMILES	RecA splice inh	Mtb betalactam	YopH inh	Mtb H37Rv	Arbovirus inh	others
CCc1cc2c(=O)c(-c3cnn(-c4ccccc4)c3)c(C)oc2cc1OCC(=O)Nc1ccc(F)c(F)c1	0.4	7	-23	-5%	-28
CC(=O)Nc1ccc(NC(=O)c2ccccc2CC[N+](=O)[O-])cc1	-1.1	-2	-23	-2%	8
CCOC(=O)Nc1sc2nc(C)cc(C)c2c1-n1cccc1	-6.1	-8	-27	12%	19
Cc1ccc(NC(=S)NCc2ccco2)c(C)c1	0.1	-6	x	-2%	x

Next part
SMILES	RecA splice inh	Mtb betalactam	YopH inh	Mtb H37Rv	Arbovirus inh	others
O=C(O)c1ccc2c(c1)C(=O)N(c1cccc(-c3nc4ccccc4s3)c1)C2=O	x	11	x	0%	-2
O=[N+]([O-])c1ccc(N2CCOCC2)cc1SCc1ccco1	-2.3	-3	-7	-4%	7
CCn1cc(C(=O)NCCCN2CC(C)CC(C)C2)c2cc(OC)c(OC)cc2c1=O (stereo not given)	2.7	4	3	-6%	2	Arbovirus inh repeat=3
Cc1ccc(S(=O)(=O)N(C)C)cc1NC(=S)NC1CCCC(C)C1C (stereo not given)	1.0	-3	-20	1%	-4
COc1ccc(NC(=O)c2c(NC(=O)CNCc3ccco3)sc3c2CCC3)cc1	0.4	18	-24	5%	3
CCOCCOC(=O)C(C)Oc1ccc(Oc2nc(Cl)ccc2Cl)cc1 (stereo not given)	4.1	100	x	u	7
Cc1ccc(S(=O)(=O)CC(=O)Nc2cc(C)on2)cc1	1.6	-7	x	x	x
CCC1C(=O)N=C(SCC(=O)Nc2ccccc2)NC1=O (stereo not given)	0.7	6	-4	-8%	4
Cc1ccccc1OCC(=O)Nc1nnc(-c2ccncc2)s1	0.2	16	x	0%	x
CC(=O)Nc1ccc(S(=O)(=O)Nc2nc3ccccc3nc2Nc2cccc(O)c2)cc1	0.1	-2	x	-6%	x
Cc1nc(-c2c(-c3ccc(O)cc3O)noc2C(F)(F)F)cs1	-3.9	22	0	-1%	1
CC1CN(C(=O)c2ccc3c(c2)OCO3)OC(c2ccccc2)O1 (stereo not given)	4.5	-4	2	1%	-2
CCn1cc(C(=O)NCCCN(C)c2ccccc2)c(=O)c2cc(S(=O)(=O)N(C)C)ccc21	-1.3	96	-34	47%	-22
S=C(Nc1ccccc1)c1ccccn1	0.9	100	-1	u	8
COc1ccc(OC)c(CN2CCN(CCc3ccccc3)C(CCO)C2)c1 (stereo not given)	-0.8	2	x	6%	5
O=c1cc(CSc2ccc(Cl)cc2)nc(-c2ccccn2)[nH]1	3.2	92	x	x	x
CN1CCC(OC(=O)C2c3ccccc3Oc3ccccc32)CC1	-0.9	-7	-5	-4%	-2
CCCCNC(=S)Nc1cccc2cnccc12	-0.6	3	-18	1%	-11
COc1ccc(NC(=O)C2CCN(C(=O)Cc3ccccc3)CC2)c(OC)c1	0.4	-15	x	-2%	0
c1ccc2c(N3CCOCC3)nc(N3CCOCC3)nc2c1	3.2	-8	3	0%	1
COc1ccc2cc(C3c4cc(OC)c(OC)cc4CCN3C(=O)c3ccco3)c(=O)[nH]c2c1 (stereo not given)	3.4	5	x	x	x
CC1(C)Cc2c(cnn2-c2ccccc2)-c2c1c1ccccc1n2CC(O)CCl (stereo not given)	5.0	84	-17	3%	-36
O=C1c2ccccc2C(=O)N1CCSc1n[nH]c(=S)s1	-0.9	-8	-21	x	12
Oc1ccc(Cl)cc1CNn1cnnc1	-4.0	-10	x	13%	-2
CCN(CC)S(=O)(=O)c1ccc(C(=O)Nc2ncn(Cc3ccccc3)n2)cc1	-0.7	-12	-53	-6%	-1

Next section:
SMILES	RecA splice inh	Mtb betalactam	YopH inh	Mtb H37Rv	Arbovirus inh	others
O=c1c2c3c(sc2n2cnnc2n1Cc1ccccc1)CN(Cc1ccccc1)CC3	-5.3	2	9	-7%	x
CCOc1ccccc1NC(=O)C(=O)N/N=C/c1ccc([N+](=O)[O-])cc1	0.6	-8	x	5%	1
CCOc1ccc(NS(=O)(=O)c2ccc3c(c2)N(C(C)=O)CCO3)cc1	-0.8	7	x	x	x
COc1cccc(CNS(=O)(=O)c2ccc3c(c2)CC(C)N3C(C)=O)c1 (stereo not given)	0.0	-2	x	x	x
Cc1cc(=O)oc2cc(OCc3ccc(C(=O)OCC(=O)Nc4ccccc4OC(F)F)cc3)ccc12	-3.4	8	-3	14%	-3
O=C(Nc1ccc2c(c1)CCCN2C(=O)c1cccs1)c1c(F)cccc1F	1.5	7	x	x	x
C=CCOC(=O)C1=C(C)OC(N)=C(C#N)C1c1ccc2c(c1)OCO2 (stereo not given)	-2.4	-12	10	2%	-5
O=Cc1c(-[n+]2ccccc2)nc([O-])n1-c1ccccc1	1.0	2	9	-8%	9
COCCn1nnnc1C(c1ccccc1)N1CCN(C)CC1 (stereo not given)	2.0	-3	-41	-4%	-1
Cc1ccc(CNC(=O)[C@H](C)[C@H]2C[C@]2(C)[C@H](NC(=O)OCc2ccccc2)c2ccccc2)o1	8.4	-1	-16	-10%	-3
Cc1cc(Nc2ccccc2O)c2ccccc2n1	-4.5	1	x	-4%	-10
O=C(c1ccccc1)N(C1=NCCCCS1)c1ccccc1	0.2	0	-40	4%	-4
Cc1cc(-c2nnc(SCC(=O)Nc3ccccc3C(F)(F)F)o2)c(C)n1-c1ccccc1	-0.4	-1	-14	1%	-30
CC(C)[C@H](NC(=O)N1CCn2c1nc1ccccc12)C(=O)N[C@H](C(=O)O)c1ccccc1	3.8	3	x	x	x
CCC1(C)Cc2ccccc2-c2c1c(=O)n(Cc1ccccc1)c1nnnn21 (stereo not given)	0.0	-11	-14	-4%	3
O=C(COC(=O)C12CC3CC(CC(C3)C1)C2)Nc1nccs1	3.9	-5	x	8%	2
Cc1cccc(NC(=O)COC(=O)c2cccc3c2C(=O)c2ccccc2C3=O)c1C	-5.4	9	-25	4%	-11
O=C(COC(=O)Cn1cnc2ccccc21)NCCc1ccc(Cl)cc1	0.0	-2	-3	-4%	1
Cc1ccccc1NC(=O)Cn1c(NCC(C)O)nc2ccccc21 (stereo not given)	-0.7	-1	-23	1%	-4
COc1ccc(C2=NNC(=O)CC2)cc1	-1.7	4	-30	-3%	-7
COc1ccc(-n2c(C)c3c(OC)cccc(=O)c3c2C)cc1	4.7	-2	-13	x	8
CC1CCCCN1C(=O)COC(=O)c1cc([N+](=O)[O-])ccc1N (stereo not given)	2.3	2	x	x	x
O=C(c1ccc(COc2ccc(Cl)cc2)cc1)N1CCCCC1	11	34	x	6%	-11
CC(C)c1nc(SCC(=O)N2CCOCC2)c2c(=O)n(C)c(=O)n(C)c2n1	0.2	1	-30	1%	0	Arbovirus inh repeat=0
NC(=O)c1nnsc1Sc1c(C(N)=O)nnn1-c1cccc(N)c1	3.9	1	x	0%	-1

Further results:
SMILES	RecA splice inh	Mtb betalactam	YopH inh	Mtb H37Rv	Arbovirus inh	others
Cc1cc(-c2ccco2)n(CC(=O)NCCCc2ccccc2)n1	0.8	1	-32	5%	-3	Arbovirus inh repeat=3
COCCn1c(SCC(=O)N2CCCCCC2)nc2c(c1=O)SCC2	0.1	3	x	x	x
COc1cccc(COCC(O)Cn2cnc3cc(C)c(C)cc32)c1 (stereo not given)	0.3	8	x	-2%	11
CC1(c2ccccc2Cl)NC(=O)N(CC(=O)c2ccc3c(c2)OCO3)C1=O (stereo not given)	1.2	-6	x	x	x
O=C(CSc1n[nH]c(-c2ccccc2)n1)Nc1ccccc1O	2.3	-2	x	x	x
COC(=O)Cc1ccc(NC(=S)NCc2ccc(Cl)cc2)cc1	1.7	-10	-11	5%	2
COc1ccc(-c2c3c(=O)n(C)c(=O)n(C)c3cn2-c2cc(OC)ccc2OC)cc1	-1.1	1	-44	2%	-15
CCCn1c(SCC(=O)Nc2nc(C)c(C(=O)OC)s2)nnc1C(C)C	-2.2	-5	-42	-7%	-3
O=C(Nc1ncc([N+](=O)[O-])s1)C1COc2ccccc2O1 (stereo not given)	16	-4	x	x	x
COc1ccc(Cc2noc(CN(C)CC3CCN(Cc4ccccc4)CC3)n2)cc1OC	0.7	-2	x	-4%	x

Bioassay records (PubChem BioAssay)
